Bioassay records deposited in PubChem BioAssay by several laboratories.
PABP FP inh – blocks human PABP binding to poly(A) RNA | P11940 | fluorescence polarization | inhibition, % at 35 µM | 290,000 compounds, 1% hits | AID 2014;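 active = 50% or more with normal probe brightness, or confirmed in later tests; about a fifth of its hits are not listed in these tables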;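 note: calls also rest on retests at 20 µM and on dose response follow-up; controls were probe without protein and protein plus probe with vehicle; some compounds called inactive have numbers as strong as hits; many hits fall short of the cut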
Target sequence (P11940 whole entry, looked up): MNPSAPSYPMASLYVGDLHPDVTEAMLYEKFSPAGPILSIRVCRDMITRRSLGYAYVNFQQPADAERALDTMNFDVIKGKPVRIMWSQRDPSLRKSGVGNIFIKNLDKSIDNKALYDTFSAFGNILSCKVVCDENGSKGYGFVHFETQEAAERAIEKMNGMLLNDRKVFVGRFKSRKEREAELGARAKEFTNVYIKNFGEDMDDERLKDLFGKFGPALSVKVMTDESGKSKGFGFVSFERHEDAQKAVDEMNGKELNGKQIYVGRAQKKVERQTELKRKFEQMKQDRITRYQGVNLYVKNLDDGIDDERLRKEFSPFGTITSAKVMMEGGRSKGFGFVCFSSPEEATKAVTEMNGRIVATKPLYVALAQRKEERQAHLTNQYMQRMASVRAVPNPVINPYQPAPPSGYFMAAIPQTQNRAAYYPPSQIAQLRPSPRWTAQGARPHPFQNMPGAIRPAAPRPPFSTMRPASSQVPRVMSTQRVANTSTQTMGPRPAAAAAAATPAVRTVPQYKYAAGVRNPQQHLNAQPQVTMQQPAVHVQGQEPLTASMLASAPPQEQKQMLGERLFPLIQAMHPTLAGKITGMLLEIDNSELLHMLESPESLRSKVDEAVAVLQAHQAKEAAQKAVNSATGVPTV
Yeast UUG start – yeast start codon fidelity modulation. S. cerevisiae UUG-firefly luciferase reporter, luminescence/redox ratio. activity score, % at 18.7 µM. 350,000 compounds, 0.13% hits. AID 602363;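 active = replicate mean at a twofold rise or more, about +100% in these data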;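 note: firefly luciferase made from a UUG start codon reports start codon fidelity; reporter light over untreated wells divided by growth signal over untreated wells; some hits fall short of that in this replicate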
eIF4H FP inh – inhibitors of RNA binding by human eIF4H | Q15056 | eIF4H fluorescence polarization binding assay | inhibition, % at 35 µM | 290,000 compounds, 0.94% hits | AID 2012;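 active = 50% or more with normal probe brightness, or confirmed in later tests; about a fifth of its hits are not listed in these tables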;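 note: calls also rest on retests at 20 µM and on dose response follow-up; 0% = protein and probe with vehicle and 100% = probe without protein; strong numbers were not always called active; many hits fall short of the cut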
MT1-MMP act inh – blocks activation of human MT1-MMP | P50281 | HT1080 RFP-PRO-GFP cells, GFP/RFP ratio fluorescence, overnight; percent of plate control window, DMSO zero | GFP/RFP ratio change, % at 20 µM | 360,000 compounds, 0.061% hits | AID 651647;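 active = GFP/RFP ratio change of at least 30% with cell ATP level not reduced by more than half and red fluorescence within 50% of control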; note: strong numbers were not always called active
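Assay system: RFP-PRO-GFP reporter HT1080 cells; read-out basis: GFP/RFP fluorescence ratio; benchmarks: DMSO wells and RFP-L50D-GFP cells; doses: 20 µM single dose, 1% DMSO; schedule: overnight cell settling, then overnight compound exposure, 37 °C, 5% CO2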
CSC inhib – cancer stem cell inhibition. cancer stem cell-like cells viability, luminescence. inhibition, % at 7.5 µM. 300,000 compounds, 1.1% hits. AID 2717;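 active = mean at 75% or more and at least half the replicates too; tested in HMLE shEcad cells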;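 note: 0% = median of negative and 100% = median of positive control wells; the first replicate is given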
Env fusion inh – blocks HIV Env-driven cell-cell fusion. HeLa-JRFL Env/CEM21 cell fusion, luciferase. inhibition, % at 12.3 µM. 360,000 compounds, 1.1% hits;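 active = mean replicate inhibition score of at least 50 and every replicate individually at or above 50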;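 note: 0% = plate neutral controls and 100% = maraviroc near 300 nM; one replicate is shown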
Rce1 inh – yeast Ras-converting enzyme inhibition; 290,000 compounds, 0.27% hits; AID 2563; Q03530; calls only; yeast membranes, quenched prenylated peptide cleavage fluorescence;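 active = fall in fluorescence gain of 50% or more versus controls, with final raw signal at or below 3038400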;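 note: plate controls were neutral control wells for no effect and wells lacking membranes for full effect; tested at 10 µM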
eIF4H FP inh retest – recorded beside eIF4H FP inh, whose call it bears; inhibition, %; compound at 20 µM; confirmation average;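 mean of two retest wells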
PABP FP inh retest – recorded beside PABP FP inh, whose call it bears; inhibition, %; compound at 20 µM; confirmation repeats;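 mean of two retest wells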
MT1-MMP act inh RFP – further read-out of MT1-MMP act inh, marked with its call; RFP signal change, %; measured here: RFP expression control read;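 0 = vehicle wells; hits needed this value within 50% of zero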
* = called active by the depositor; i = inactive; . = not tested or not shown.

SMILES	PABP FP inh	Yeast UUG start	eIF4H FP inh	MT1-MMP act inh	MT1-MMP act inh RFP	CSC inhib	Env fusion inh	Rce1 inh	others
Cc1ccc(NC(=O)Cn2ccsc2=N)cc1S(=O)(=O)N(C)C	9	.	-3	4	5	-3	7	i
COc1ccc(C(CNC(=O)C(=O)NC2CCCC2)N2CCN(C)CC2)cc1 (centres undefined)	.	.	.	1	2	2	-4	i
Cc1cc(C)n2nc(CC(=O)NC3CCCC(C)C3C)nc2n1 (centres undefined)	3	-16	0	-1	2	1	.	i
CCC(=O)N1CCc2cc(S(=O)(=O)N3CCCCC3CC)ccc21 (centres undefined)	4	-15	10	-4	0	-11	1	i
Clc1ccc(OCCN2CCN(c3ncnc4sccc34)CC2)cc1	8	1	2	6	-19	19	99*	i
O=c1cc(NS(=O)(=O)c2ccccc2)nc(SCc2ccccc2Cl)[nH]1	-1	-5	-7	-7	-10	7	-10	i
N#Cc1ccccc1S(=O)(=O)N1CCN(C(=O)CCC2CCCC2)CC1	.	-7	.	-1	2	-3	-3	.
Cc1ccc(Cl)c2c1NC(=O)C2(O)CC(=O)c1ccc(Br)cc1 (centres undefined)	1	3	-5	-15	0	7	-61	i
O=C(NC1CCCCC1)C1CN(S(=O)(=O)c2ccccc2)CCN1S(=O)(=O)c1ccccc1 (centres undefined)	4	3	-3	4	-2	-2	33	i
COc1ccc2oc(C(=O)OCC(=O)NC3(C#N)CCCC3)c(C)c2c1	.	.	.	7	7	.	-19	i
COc1cccc(NC(C)C(=O)Nc2cc([N+](=O)[O-])ccc2Cl)c1 (centres undefined)	-2	-12	7	5	0	16	10	i
CCC(=O)Nc1cccc(-c2nc3ccccc3c(=O)o2)c1	3	4	4	3	-2	.	.	i
Cc1ccc(-c2cc(C(=O)NCCCn3ccnc3)no2)cc1	3	.	2	4	3	9	-5	i
CN(CCC1CCOCC1)C(=O)CC1C(=O)NCCN1Cc1ccoc1 (centres undefined)	-2	.	-2	0	4	2	0	i
C[C@@H]1NC(=O)N(c2ccc(F)cc2)C1=O	2	-11	1	0	4	10	18	i
CC(C)n1nnc2ccccc2c1=O	4	.	-11	-1	2	-19	-50	i
Cc1ccccc1N(CC(N)=O)S(C)(=O)=O	-4	3	2	4	5	-2	0	i
COc1ccc(NC(=O)COc2coc(CN3CCN(c4ccccc4)CC3)cc2=O)cc1	.	-24	.	1	-5	-9	7	i
O=C(COC(=O)c1ccc(Br)cc1)NCCN1C(=O)CSC1=O	-8	.	4	-1	6	.	15	i
Cc1cc(C(=O)NCCCN2CCOCC2)n(-c2ccccc2)n1	-6	-11	-8	1	6	-27	22	i
COc1ccccc1Nc1ccc(C(=O)O)cc1[N+](=O)[O-]	-17	.	-2	5	-1	12	4	i
CCCN(CCC)C(=O)CSc1nc2ccccc2c(=O)n1CC1COc2ccccc2O1 (centres undefined)	-4	-11	0	-4	-7	8	26	i
CCOC(=O)c1cc(-c2nnc(-c3cc(OC)c(OC)c(OC)c3)o2)c(C)nc1C	.	-8	.	1	7	3	.	i
C=C(C)C(=O)NNc1ccccc1	-1	.	0	3	5	-9	13	i
Cc1cc(C)c2cc(CN(CCO)C(=O)NC3CCCCC3)c(=O)[nH]c2c1	1	-2	-1	3	2	-5	11	i

Some of these compounds in order of number of heavy atoms, falling:
SMILES	PABP FP inh	Yeast UUG start	eIF4H FP inh	MT1-MMP act inh	MT1-MMP act inh RFP	CSC inhib	Env fusion inh	Rce1 inh	others
COc1ccc(NC(=O)COc2coc(CN3CCN(c4ccccc4)CC3)cc2=O)cc1	.	-24	.	1	-5	-9	7	i
CCOC(=O)c1cc(-c2nnc(-c3cc(OC)c(OC)c(OC)c3)o2)c(C)nc1C	.	-8	.	1	7	3	.	i
CN(CCC1CCOCC1)C(=O)CC1C(=O)NCCN1Cc1ccoc1 (centres undefined)	-2	.	-2	0	4	2	0	i
COc1cccc(NC(C)C(=O)Nc2cc([N+](=O)[O-])ccc2Cl)c1 (centres undefined)	-2	-12	7	5	0	16	10	i
CCC(=O)Nc1cccc(-c2nc3ccccc3c(=O)o2)c1	3	4	4	3	-2	.	.	i

The results go on.
SMILES	PABP FP inh	Yeast UUG start	eIF4H FP inh	MT1-MMP act inh	MT1-MMP act inh RFP	CSC inhib	Env fusion inh	Rce1 inh	others
COc1ccccc1N1CCN(C(=O)c2c(-c3ccccc3Cl)noc2C)CC1	-5	-1	-7	-8	-2	11	.	i
CCOC(=O)C1(Cc2cccc(F)c2)CCN(CC2CC2)CC1	-10	-14	-5	-1	1	-4	9	i
Cc1ccc2[nH]c(=O)c(CNS(=O)(=O)c3ccccc3)c(-c3ccccc3)c2c1	-17	-12	-10	-4	-3	2	17	i
CCN(CC)c1ccc(S(=O)(=O)N2CCOCC2)cc1NC(=O)CN1CCc2ccccc2C1	-1	.	24	-10	-14	16	4	i
O=C(NCCCc1nc2ccccc2[nH]1)c1ccco1	4	-2	-8	-2	1	3	84*	i
Cc1cc(C)c(NC(=O)CSc2nc(=O)n(CCN3CCOCC3)c3c2CCCC3)c(C)c1	.	-8	.	-4	5	-1	0	i
COc1ccc(OC)c(C(=O)c2ccc(C(=O)c3cc(OC)ccc3OC)cc2)c1	-9	-17	-9	0	-3	-5	.	i
C#CCN(CC(=O)OCC)S(=O)(=O)CCNC1CC1	.	6	.	3	6	.	-19	.
COc1ccccc1C(C)NC(=O)C1CCN(S(=O)(=O)c2cccs2)CC1 (centres undefined)	.	-10	.	-3	1	-13	-22	.
COc1ccc(OC)c(C2=NS(=O)(=O)N(C)C(C(=O)NCc3cccs3)=C2)c1	5	1	-6	2	4	-5	-3	i
CCCOc1ccc(N2C(=O)CC(N(CCc3ccc(OC)cc3)C(=O)c3ccccc3)C2=O)cc1 (centres undefined)	0	.	6	-3	-10	-2	7	i
CCOC(=O)c1cnc2cc(-c3ccc(C(C)(C)C)cc3)nn2c1N	-5	-24	6	-2	-5	.	.	i
CCOc1ccccc1NS(=O)(=O)c1cn(C)nc1C	-5	.	5	2	1	-13	5	i
O=C1CCN(C(=O)c2ccccc2)C2CCCCC12 (centres undefined)	11	-10	9	4	3	12	-3	i
CCOC(=O)Cc1csc(NC(=O)CSc2nccn2C)n1	7	-15	13	-3	-1	5	-9	i
Clc1ccccc1Nc1c2c(nc3ncnn13)CCC2	-4	3	-8	8	2	-1	-106	i
O=C(CC1C(=O)NCCN1Cc1ccc(F)cc1)NCCCn1cccn1 (centres undefined)	2	1	7	3	10	-9	-59	i
COc1ccc2nc(SC(C)C(=O)NCC(=O)Nc3ccc(F)c(F)c3F)[nH]c2c1 (centres undefined)	.	-13	.	1	-3	.	-33	.
CCOC(=O)N1CCN(c2nc(-c3cccc(OC)c3)cc(C(F)(F)F)n2)CC1	-6	-16	0	-2	-3	35	-14	i
CCOc1ccc2[nH]c(=O)c(CN(Cc3cccs3)C(CC)c3nnnn3C(C)(C)CC)cc2c1 (centres undefined)	6	-13	7	-4	-1	.	.	i
Nc1ccc(C(=O)Nc2cccc(N)c2)cc1	9	-16	-3	4	5	-7	-16	i
O=C(CCc1nnc2ccc(NCc3ccco3)nn12)N1CCN(c2ccc(F)cc2)CC1	13	-17	6	1	0	-11	-8	i
Cc1ccc(Cn2ncc3c(NCCN(C)C)ncnc32)cc1	-5	.	-8	3	-2	-3	-11	i
Cc1ccc(OCC(=O)NCC2CCCO2)c(C)c1 (centres undefined)	2	.	-4	13	7	-4	-23	i
Nc1cccc(-c2nc3ccccc3s2)c1	-1	-42	-6	-2	-5	9	-375	i

The closing 2 entries of the section above come first, to join the parts.
SMILES	PABP FP inh	Yeast UUG start	eIF4H FP inh	MT1-MMP act inh	MT1-MMP act inh RFP	CSC inhib	Env fusion inh	Rce1 inh	others
Cc1ccc(OCC(=O)NCC2CCCO2)c(C)c1 (centres undefined)	2	.	-4	13	7	-4	-23	i
Nc1cccc(-c2nc3ccccc3s2)c1	-1	-42	-6	-2	-5	9	-375	i
COC(=O)c1ccc(NC(=S)N2CCN(CCO)CC2)cc1	3	10	11	0	2	10	-15	i
Cc1nc(NC(=S)NC(=O)c2ccccc2)sc1C(=O)N(C)C	10	-7	-10	6	2	-5	-93	i
CC(C)n1ncc2c(C(=O)Nc3ccc(S(N)(=O)=O)cc3)cc(C3CC3)nc21	.	-10	.	4	-2	-5	11	.
Cc1ccc(CCNC(=O)C2CCN(S(=O)(=O)c3ccc4c(c3)CCC(=O)N4)CC2)cc1	-3	-8	-2	-3	1	-17	28	i
CN1C(=S)SC(/[N+]([O-])=C\c2ccco2)C1(C)C (centres undefined)	6	-35	2	-8	5	-7	.	i
O=C(N/N=C/c1ccc(OC2CSC2)cc1)c1ccc(CN2CCOCC2)cc1	73	.	-12	6	-2	57	0	i	eIF4H FP inh retest=-6;PABP FP inh retest=-3
COc1ccc(C2/C=C\CNCC(=O)N2Cc2ccc(F)cc2)cc1 (centres undefined)	-11	-10	-13	-1	1	-5	-41	i
CCC1(CC)C(=O)C2=C3C1[C@H](C(=O)OC)C=C(C(=O)OC)C[C@H]3n1c(=O)n(-c3ccccc3)c(=O)n1[C@H]2C (some centres undefined)	.	9	.	0	-2	5	-4	i
COc1ccccc1CCNC(=O)C1CCN(c2nnc(C)c3c(C)n(-c4ccc(C)cc4)nc23)CC1	.	-4	.	-7	-7	11	18	i
CC1(C(=O)NS(=O)(=O)c2ccc(C#N)cc2)CCN1C(=O)Cc1cc(F)ccc1F (centres undefined)	.	0	.	1	6	.	22	.
c1ccc(Cn2ncc3ccccc32)cc1	3	0	2	-3	-1	18	.	i
CCc1cccc(Nc2cc(C)nc3nc(C)nn23)c1	0	-13	5	-3	3	3	9	i
O=C(Nc1ccccc1N1CCCCC1)c1ncoc1-c1cccc(F)c1	-3	-22	1	-8	-8	25	23	i
CC(=O)N(Cc1ccc(F)cc1)c1cccc(C)c1C	-4	.	-14	-3	0	-12	10	i
C/C(=N/NS(=O)(=O)c1cccc([N+](=O)[O-])c1)c1c[nH]c2ccccc12	1	-11	-11	-1	1	.	-13	i

Looked up by structure from the entries so far:
SMILES	PABP FP inh	Yeast UUG start	eIF4H FP inh	MT1-MMP act inh	MT1-MMP act inh RFP	CSC inhib	Env fusion inh	Rce1 inh	others
c1ccc(Cn2ncc3ccccc32)cc1	3	0	2	-3	-1	18	.	i
O=C(Nc1ccccc1N1CCCCC1)c1ncoc1-c1cccc(F)c1	-3	-22	1	-8	-8	25	23	i
CC(=O)N(Cc1ccc(F)cc1)c1cccc(C)c1C	-4	.	-14	-3	0	-12	10	i
COC(=O)c1ccc(NC(=S)N2CCN(CCO)CC2)cc1	3	10	11	0	2	10	-15	i
